Assay outcomes: PubChem, Fisher Drug Discovery Resource Center
NPYLR7 agonist – mosquito NPYLR7 agonism. HEK293T NPYLR7/Galpha15, GCaMP6s calcium fluorescence. activation, % at 10 µM. actives 0.15% (n = 270,000); in the data active means activation above about 40%;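 further: 0% = vehicle and 100% = reference agonist at the receptor; some compounds past the cut are filed as inactive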
NPYLR7 agonist max-min – second read-out of NPYLR7 agonist, no call of its own (marks repeat the call); activation, %; measured here: Max-Min RFU normalised activation; some inactives read as strong as hits;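 span of the calcium signal over five minutes; 0% = vehicle and 100% = native peptide agonist; compound fluorescence can raise it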
The depositor's hits bear a star; & = joins results of further samples. Not all compounds are listed, so the mix of outcomes need not match the whole.

item	Molecule	NPYLR7 agonist	NPYLR7 agonist max-min
1	Cc1nc(C(=O)N(C)Cc2cc(C(C)(C)C)n[nH]2)cs1	9	7
2	Cc1ccc(C(=O)c2cnc3cc4c(cc3c2N2CCN(C)CC2)OCO4)cc1C	-4	-6
3	CC(CCc1ccc(O)cc1)NCCc1ccc(O)c(O)c1 (stereo unspecified)	-3&0	-7&-25
4	CC(=O)NCCCN(C)c1c(Cl)cccc1C#N	-4	-4
5	CC(C)(C)S(=O)(=O)CCNC(=O)N1CCc2ccc(Cl)cc21	-6	-4
6	O=c1[nH]cnc2ccsc12	10	16
7	CCOC(=O)c1cc2cccnc2nc1Cl	-3	3
8	CCN1CCN(CCNc2nc3ccc(C)cc3c(=O)n2C)CC1	2	2
9	COCc1c(Br)c(C)nc(OCC(=O)N/N=C\c2cccc(OCc3ccc([N+](=O)[O-])cc3)c2)c1C#N	-9	-13
10	COc1ccc(C2C(=C(O)c3ccc(C)cc3)C(=O)C(=O)N2CCN2CCOCC2)cc1OC (stereo unspecified)	3	10
11	CCCCNC(=O)CC(c1ccc(OCc2ccccc2)cc1)c1c[nH]c2ccccc12 (stereo unspecified)	8	12
12	Cc1cc(NC(=O)C(C)Oc2ccccc2)n(-c2ncnc3c2cnn3-c2ccc(F)cc2)n1 (stereo unspecified)	22	22
13	CC(=O)c1cccc2c1OC(F)(F)C(=O)N2Cc1ccccc1Cl	6	3
14	COC(=O)c1ccc(CN(Cc2ccc(OC)c(OC)c2)Cc2ccco2)o1	-5	2
15	COc1ccc(CCNC(=O)c2cccnc2N2CCN(C(=O)c3cc(F)ccc3Cl)CC2)cc1OC	10	2
16	CCOc1ccc(-c2cc(C(=O)NCCOc3ccc(OC)cc3)c3ccccc3n2)cc1	-5	6
17	COc1ccccc1NC(=O)C1CC(=O)N(CCc2ccccc2)C(=Nc2ccccc2)S1 (stereo unspecified)	1	1
18	COc1ccc2[nH]c3c(c2c1)CCN(C(=O)c1ccccc1SC(F)F)C3c1ccc(COC(C)=O)o1 (stereo unspecified)	8	-7
19	CCN(Cc1c(F)cccc1Cl)C(=O)C1CCN(C(=O)COC)CC1	5	3
20	COc1ccccc1/C=C1\CCCC2C1=Nc1nnnn1C2c1ccccc1OC (stereo unspecified)	5	1
21	CN(C)CC1(O)CCN(C(=O)c2ccc(C(C)(C)C)cc2)C1 (stereo unspecified)	14	11
22	O=C(Nc1ccc(Cl)c(Cl)c1)Nc1cc(C(F)(F)F)c[nH]c1=O	4&2	9&0
23	Cc1noc(C)c1N(C)C(=O)/C=C/c1ccc(Br)s1	-11	-12
24	S=C1SCC=C1C=NC1CCCCC1	3	1
25	CCOC(=O)N1CCN(CC(=O)N2N=C(c3ccc(C)cc3C)CC2c2cccc(OC)c2)CC1 (stereo unspecified)	25	22
26	COc1ccc(S(=O)(=O)N2CCSC2c2ccc(OC)c(Br)c2)cc1 (stereo unspecified)	5	0
27	CC(N)=C(C#N)C(=O)COC(=O)C1CCC1	-1	25
28	COc1ccc(F)cc1S(=O)(=O)N1CCN(c2cccc(C)c2C)CC1	7	2
29	COc1cc(C(=O)NCc2cn3ccsc3n2)ccc1OC1CCN(C(C)=O)CC1	1	1
30	CCc1nc2ccc(C(=O)NCCc3c[nH]c4ccccc34)cn2c1N(CC)CC(=O)N(C)C	13	20
31	O=C(O)c1cccc2cccc(-c3cccc4cccc(C(=O)O)c34)c12	-5	-6
32	CN1C(=O)NC(c2cccc(F)c2)C2=C1CN(Cc1ccccn1)C2=O (stereo unspecified)	18	20
33	CCOC(=O)C1(C)CCCCCN1C(=O)c1ccc(C#N)cc1 (stereo unspecified)	-3	-9
34	CCOC(=O)CCC(=O)N1CCN(c2nccc(-c3ccc(Oc4ccccc4)cc3)n2)CC1	4	2
35	O=C(CC1(c2ccccc2)CC(=O)N(Cc2cccs2)C1=O)N1CC[C@@H]2CCCC[C@H]2C1 (stereo partly specified)	17	3
36	Cc1ccc(S(=O)(=O)c2cnc(SCC(=O)Nc3ccc(Cl)cc3)[nH]c2=O)c(C)c1	-1	-6
37	CCOc1ccccc1N1CCN(C(=O)c2cc3n(n2)CCN(Cc2ccc(F)cc2)C3=O)CC1	8	16
38	CC1Cc2nc(SCC(=O)Nc3nc4ccccc4s3)n(Cc3ccccc3)c(=O)c2S1 (stereo unspecified)	-1	-6
39	Cc1ccc(CN(Cc2ccc(F)cc2)CC(O)COc2ccccc2)c(C)c1 (stereo unspecified)	9	24
40	COc1cccc(Oc2cnc(N)nc2-c2ccc(OCc3ccccc3F)cc2O)c1	4	0
41	O=C(CSc1nccn(-c2cccc3ccccc23)c1=O)c1ccc(F)cc1	0	7
42	CC(C)c1ccccc1OC/C=N\N(C)C(=N)N	-2	6
43	CC(=O)Nc1ccc(/C=C2/Cn3cccc3C2=O)cc1	15	6
44	O=C(CSc1nc2c(c(=O)n1-c1ccc(Br)cc1)SCC2)Nc1nccs1	-2	-2
45	Cc1cccc(C)c1NC(=O)CN1C(=O)c2ccc([N+](=O)[O-])cc2C1=O	3	-3
46	CC1CC(C)CN(CCNC(=O)c2cnc(-c3ccccc3)nc2)C1 (stereo unspecified)	4	3
47	CS(=O)(=O)N1CCC2(CC1)CC(N1CCOCC1)CO2 (stereo unspecified)	-8	-12
48	CC(C)O[C@H]1CN(C(=O)c2cc(Cn3ccc4ccccc43)[nH]n2)C[C@@H]1O	2	1

49) CN(C)CCNC(=O)C(Cc1ccccc1)NC(=O)C1CC(c2ccc(Cl)o2)=NO1 (stereo unspecified)
50) CN(C)C(=O)n1nc2c3c(cccc31)C(=O)c1ccccc1-2
51) Cc1ccc2nc(CSc3nc(C)cs3)cc(=O)n2c1
52) COc1cccc(CN(CC(C)C)CC(O)c2ccccc2)c1OC (stereo unspecified)
53) O=C(CSc1nc2[nH]ncc2c(=O)n1-c1ccccc1)Nc1ccc(F)cc1
entry no. | 49 | 50 | 51 | 52 | 53
NPYLR7 agonist | 7 | 1 | 3 | -6 | -1
NPYLR7 agonist max-min | 8 | 73 | 11 | 1 | 2

54) CC(C)NC(=O)C12CCC(C)(C(=O)C1)C2(C)C (stereo unspecified)
55) O=c1nc(SCc2ccccc2)nc2ccccn12
56) CCOc1nc(-c2ccco2)n(-c2ccc(NCC(O)COCC(C)C)cc2)n1 (stereo unspecified)
57) CCOc1cccc(-c2nc3ccc(Br)cc3c(=O)n2Cc2ccccc2)c1
58) Cc1ccc(OCC2c3ccsc3CCN2C(=O)CN(C2CC2)S(=O)(=O)c2ccc(Cl)cc2)c(C)c1 (stereo unspecified)
entry no. | 54 | 55 | 56 | 57 | 58
NPYLR7 agonist | 0 | 5 | 19 | 3 | -2
NPYLR7 agonist max-min | -1 | 2 | 17 | -1 | 2

59) CC1CN(c2cc(Cl)nc(SCC(=O)N3CCN(c4ccccc4F)CC3)n2)CCN1C(=O)C1CC1 (stereo unspecified)
60) CC1CCCC(C)N1C(=O)CS(=O)(=O)c1nncn1C (stereo unspecified)
61) CC(C)Cn1cncc1CNC(=O)c1cccc(-n2cnnc2)c1
62) COC(=O)CN1CC2(CCN(C(=O)c3cc4ccccc4[nH]3)CC2)OC1=O
63) CCCc1nc(N2CCCN(C(=O)Nc3cccc(C#N)c3)CC2)c2c(-c3cccc(C(F)(F)F)c3)noc2n1
entry no. | 59 | 60 | 61 | 62 | 63
NPYLR7 agonist | 13 | 1 | 0 | 4 | 16
NPYLR7 agonist max-min | 19 | 5 | 0 | 3 | 4

64) C=CCNC(=S)Nc1ccc(Cl)c(Cl)c1
65) C=CCN(Cc1ccccc1OC)C(=O)c1cccc(N(C)C)c1
66) CC(C)Nc1ncccc1C(=O)N(CCN(C)C)Cc1ccccc1
67) CNc1nnc(SCc2cccc(F)c2)s1
68) COCCCN(Cc1csc(COc2cc(C)cc(C)c2)n1)C(=O)COC
entry no. | 64 | 65 | 66 | 67 | 68
NPYLR7 agonist | -8 | 0 | 23 | -1 | 28
NPYLR7 agonist max-min | -17 | 1 | 17 | 2 | 26

69) CC1(C(=O)NS(=O)(=O)c2ccccc2)CCN1C(=O)CCc1cccs1 (stereo unspecified)
70) COc1ccc(S(=O)(=O)N2CCN(C(=O)CCl)CC2)cc1OC
71) O=C(OCC(=O)N1CCNC1=O)c1cc2c(s1)-c1ccccc1CC2
72) COc1cccc(NC(=O)c2sc3nc4c(cc3c2N)C(=O)CC(C)(C)C4)c1
73) CCn1cc(CN2CCC(N3CCCC3=O)CC2)c2ccccc21
entry no. | 69 | 70 | 71 | 72 | 73
NPYLR7 agonist | -2 | 18 | 0 | 3 | 4
NPYLR7 agonist max-min | -9 | 16 | -1 | 10 | 5

Structures listed so far with a CF3 group:
22) O=C(Nc1ccc(Cl)c(Cl)c1)Nc1cc(C(F)(F)F)c[nH]c1=O
63) CCCc1nc(N2CCCN(C(=O)Nc3cccc(C#N)c3)CC2)c2c(-c3cccc(C(F)(F)F)c3)noc2n1
entry no. | 22 | 63
NPYLR7 agonist | 4&2 | 16
NPYLR7 agonist max-min | 9&0 | 4

Next section
74) Cc1cccc(-c2nnc3c4ccccc4nc(NC4CC4)n23)c1
75) CCCC1CCC(c2ccc(C(=O)Nc3nnc(SCC)s3)cc2)CC1 (stereo unspecified)
76) NS(=O)(=O)c1ccc(CCn2cc3ncccc3c2O)cc1
77) CCC1CN(CC(=O)NCCCc2cccnc2)Cc2cc(OC)ccc2O1 (stereo unspecified)
78) COc1ccc(Cl)c2sc(N(Cc3cccnc3)C(=O)c3ccccc3F)nc12
entry no. | 74 | 75 | 76 | 77 | 78
NPYLR7 agonist | 6 | 1 | 1 | 1 | 9
NPYLR7 agonist max-min | 5 | 2 | -2 | -4 | 7

79) COc1ccc(Cn2c(-c3ccncc3)n[nH]c2=O)cc1
80) Oc1ccc(N=Nc2ccc3c(c2)OCO3)c2cccnc12
81) CCC1CN(Cc2ccccc2)C(CC)CN1 (stereo unspecified)
82) CSCCCNC(=O)c1c(C)noc1-c1cccc(F)c1
83) Cc1cc(=O)[nH]c(-c2ccc(N3CCOc4ccccc4C3)nc2)n1
entry no. | 79 | 80 | 81 | 82 | 83
NPYLR7 agonist | -1 | 3 | -3 | 0 | -10
NPYLR7 agonist max-min | -4 | 4 | -8 | 1 | -10

84) C=CCNC(=O)Cn1cc(OC)c(=O)cc1CSc1nnnn1C
85) O=C1C2C3C=CC(C3)C2C(=O)N1c1ccc(F)c([N+](=O)[O-])c1 (stereo unspecified)
86) CNC(=O)Cn1cc(-c2ccc(CO)cc2)cn1
87) CCc1cc(NS(=O)(=O)c2cnn(-c3ccc(C)cc3)c2)n(C)n1
88) COc1ccc2c(c1)C(C)(Cc1cc(Cl)ccc1OC)C(=O)N2 (stereo unspecified)
89) Cc1c(C)n2c3c(=O)n(CCN4CCCCC4)c(=O)n(C)c3nc2n1CCN1CCCCC1
entry no. | 84 | 85 | 86 | 87 | 88 | 89
NPYLR7 agonist | -2 | -3 | 1 | -1 | 4 | 3
NPYLR7 agonist max-min | -7 | -8 | 4 | 10 | 3 | 4

Structures above with fluorine, in the order listed:
12) Cc1cc(NC(=O)C(C)Oc2ccccc2)n(-c2ncnc3c2cnn3-c2ccc(F)cc2)n1 (stereo unspecified)
13) CC(=O)c1cccc2c1OC(F)(F)C(=O)N2Cc1ccccc1Cl
15) COc1ccc(CCNC(=O)c2cccnc2N2CCN(C(=O)c3cc(F)ccc3Cl)CC2)cc1OC
18) COc1ccc2[nH]c3c(c2c1)CCN(C(=O)c1ccccc1SC(F)F)C3c1ccc(COC(C)=O)o1 (stereo unspecified)
19) CCN(Cc1c(F)cccc1Cl)C(=O)C1CCN(C(=O)COC)CC1
22) O=C(Nc1ccc(Cl)c(Cl)c1)Nc1cc(C(F)(F)F)c[nH]c1=O
28) COc1ccc(F)cc1S(=O)(=O)N1CCN(c2cccc(C)c2C)CC1
entry no. | 12 | 13 | 15 | 18 | 19 | 22 | 28
NPYLR7 agonist | 22 | 6 | 10 | 8 | 5 | 4&2 | 7
NPYLR7 agonist max-min | 22 | 3 | 2 | -7 | 3 | 9&0 | 2

32) CN1C(=O)NC(c2cccc(F)c2)C2=C1CN(Cc1ccccn1)C2=O (stereo unspecified)
37) CCOc1ccccc1N1CCN(C(=O)c2cc3n(n2)CCN(Cc2ccc(F)cc2)C3=O)CC1
39) Cc1ccc(CN(Cc2ccc(F)cc2)CC(O)COc2ccccc2)c(C)c1 (stereo unspecified)
40) COc1cccc(Oc2cnc(N)nc2-c2ccc(OCc3ccccc3F)cc2O)c1
41) O=C(CSc1nccn(-c2cccc3ccccc23)c1=O)c1ccc(F)cc1
53) O=C(CSc1nc2[nH]ncc2c(=O)n1-c1ccccc1)Nc1ccc(F)cc1
59) CC1CN(c2cc(Cl)nc(SCC(=O)N3CCN(c4ccccc4F)CC3)n2)CCN1C(=O)C1CC1 (stereo unspecified)
entry no. | 32 | 37 | 39 | 40 | 41 | 53 | 59
NPYLR7 agonist | 18 | 8 | 9 | 4 | 0 | -1 | 13
NPYLR7 agonist max-min | 20 | 16 | 24 | 0 | 7 | 2 | 19

63) CCCc1nc(N2CCCN(C(=O)Nc3cccc(C#N)c3)CC2)c2c(-c3cccc(C(F)(F)F)c3)noc2n1
67) CNc1nnc(SCc2cccc(F)c2)s1
78) COc1ccc(Cl)c2sc(N(Cc3cccnc3)C(=O)c3ccccc3F)nc12
82) CSCCCNC(=O)c1c(C)noc1-c1cccc(F)c1
85) O=C1C2C3C=CC(C3)C2C(=O)N1c1ccc(F)c([N+](=O)[O-])c1 (stereo unspecified)
entry no. | 63 | 67 | 78 | 82 | 85
NPYLR7 agonist | 16 | -1 | 9 | 0 | -3
NPYLR7 agonist max-min | 4 | 2 | 7 | 1 | -8
